Source: PubChem (several laboratories)
RN4220 kill – S. aureus RN4220 growth inhibition. OD600, 16 h. inhibition, % (test concentration not listed). 0.33% of 330,000 active. AID 1259311;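 active = z-score of -3 or lower and OD600 up to 0.18 on both plates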;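 also: plate controls were untreated cells for no effect and reference antibiotic for full effect; stock transfer was 100 nL into about 80 µL; one replicate is shown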
PrP UTR inh – suppresses PrP 5' UTR mRNA reporter expression | cell-based PrP 5' UTR mRNA reporter, plate reader | inhibition, % (concentration not given with the values) | 0.35% of 340,000 active | AID 488862;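 active = every replicate at 50% or more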;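 also: 0 = median of the neutral control wells; tested in H4 reporter cells; numbers are from one replicate; inactives centre near -14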
Mtb hypoxia inh – reduces hypoxia-regulated biosensor signal in M. tuberculosis | AID 1159583 | 0.1% of 300,000 active | fluorescence inhibition, % (concentration not given with the values) | M. tuberculosis hypoxia-regulated fluorescent reporter, fluorescence;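 active = 35 to 45% if threefold the growth effect, above 45% if 1.5-fold the growth effect; inactive = the rest, general growth blockers included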;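 also: wells of about 50 µL received 100 nL stock; 0% = vehicle wells and 100% = reference inhibitor wells; whole bacteria with a GFP reporter of the hypoxia response; strong numbers were not always called active; many hits fall short of the cut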
Sa ugtP lethal – compounds lethal to S. aureus RN4220 ugtP deletion mutant. OD600 growth, 16 h; some inactives read as strong as hits. growth inhibition, % (test concentration not listed). 0.54% of 330,000 active;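 active = z-score under -3 and OD600 up to 0.15 on both plates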;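 also: plate controls were untreated wells for no effect and antibiotic for full effect; wells of about 80 µL received 100 nL stock; the first replicate is given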
Autofluor counter – counter-screen for toxin protease inhibitors: compound fluorescence; compound autofluorescence counterscreen, microsphere flow cytometry; stronger effect = higher value; fluorescence intensity (concentration not given with the values); 3.1% of 360,000 active;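 active = at least 3 SD above the mean of all compounds, about 16000 in these data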;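 also: 100 nL of 1 mM stock went into each well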
BJeLR lethal – BJeLR cell viability loss | BJeLR (HRASV12) viability, CellTiter-Glo ATP luminescence, 48 h; reference of the scale not given here | inhibition, % (no concentration beside the values) | 0.17% of 300,000 active | AID 1554;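 active = replicate mean above 50%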;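 also: 50 nL library stock added to about 25 µL; numbers are from one replicate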
Mtb hypoxia inh growth – second read-out of Mtb hypoxia inh, no call of its own (marks repeat the call); growth inhibition, %; measured here: M. tuberculosis growth (absorbance);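 0% = vehicle and 100% = reference antibiotic; read after six days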
Starred values were filed as active, the others as inactive; / = not tested or not shown. Hits appear at their usual frequency, and some 4% of all compounds hit somewhere here.

compound | RN4220 kill | PrP UTR inh | Mtb hypoxia inh | Mtb hypoxia inh growth | Sa ugtP lethal | Autofluor counter | BJeLR lethal
CCn1c(=O)c2cc(C(=O)NCCN(C)C)sc2c2ccccc21 | 1.9 | -3 | 10 | -6 | 19 | 3142 | 8
CCOC(=O)C1=C(C)NC(=O)NC1c1ccoc1 (configuration not stated) | 0.7 | -1 | / | / | 8 | 4658 | -2
CC(=O)Nc1c(-c2ccccc2)nc2cc(C)ccn12 | -1.5 | -17 | 5 | 10 | 6 | 3767 | 5
CCOc1ccc(Cl)cc1C(c1c(C)[nH][nH]c1=O)c1c(C)[nH][nH]c1=O | 3.5 | -17 | 7 | 2 | 6 | 4217 | -2
CN(CC(=O)Nc1ccccc1Cl)C(=O)CSc1ncc(C(F)(F)F)cc1Cl | 4.5 | -9 | 8 | 3 | 15 | 2770 | 0
CCOc1ccc(S(=O)(=O)n2c(C)nc3ccccc32)cc1 | 4.8 | 2 | 4 | -3 | -4 | 5883 | /
Cc1nc([N+](=O)[O-])c(C(=O)O)n1C | 5.5 | -31 | -9 | -1 | 12 | 1972 | -3
COc1cccc(Nc2nc(CC(C)=O)ns2)c1 | 2.4 | -46 | 9 | 12 | -7 | 3857 | 4
CS(=O)(=O)N1CCCC(C(=O)Nc2cccc(F)c2)C1 (configuration not stated) | -1.4 | 16 | -3 | -12 | -4 | 3164 | -5
O=C(O)/C=C/C(=O)Nc1ccc(Oc2ncnc3cc(Cl)ccc23)nc1 | 2.9 | / | 10 | 3 | 2 | / | 0
COc1ccc(C(=S)N2CCCC2)cc1 | -1.2 | -19 | -3 | 8 | -6 | 3302 | -9
O=C(NN=Cc1cc([N+](=O)[O-])ccc1O)C1C2CCCCC21 (configuration not stated) | 89* | / | 0 | 4 | 75 | / | /
COc1ccc(/C=N/NC(=O)CSc2ccccc2)cc1OC | / | -16 | / | / | / | 2073 | 4
FC(F)(F)c1ccc(C=NN2CCN(Cc3cccc4ccccc34)CC2)cc1 | 0.5 | / | 8 | 4 | 21 | / | /
CCN(Cc1ccc(OC)c(COC)c1)CC1CCCN(CCc2cccc(OC)c2)C1 (configuration not stated) | 3.6 | -13 | 9 | 6 | 12 | / | 15
CC(C)(C)OC(=O)N1CCC(CNC(=O)Nc2ccccc2)CC1 | 5.5 | -11 | 3 | -6 | 10 | / | 0
Cc1ccc(C2=[N+]([O-])C(C)(C)CC2)cc1 | 1.4 | -8 | / | / | 7 | 2765 | 10
CN(c1ccccc1C(=O)N1CCCC1)S(C)(=O)=O | -2.3 | 8 | / | / | 11 | 4702 | 7
CCN(C(=O)COC(=O)c1ccc(Cl)c(N)c1)C1CCS(=O)(=O)C1 (configuration not stated) | 1.6 | -10 | -1 | 3 | 3 | 5017 | -4
Cc1ccc(O)c(C(=O)CC(=O)c2cccc(F)c2)c1 | 78 | -22 | / | / | 100* | 2158 | 2
CCn1c(CCCCc2n[nH]c(=S)n2CC)n[nH]c1=S | -1.3 | -6 | -6 | 6 | -12 | 3202 | 3
CC(C)C[C@H](NC(=O)C1(c2ccccc2)CCN(C(=O)[C@H]2CSCN2C(=O)OC(C)(C)C)CC1)C(=O)O | 2.4 | -35 | -10 | 1 | -3 | 2537 | -9
COc1ccccc1/C=C/CN1CCCC(CO)(CCc2ccccc2)C1 (configuration not stated) | 2.6 | -8 | -1 | 3 | 5 | 4785 | -7
CCc1cc(CNC(=O)CCc2nnc(Cc3cccc(C)c3)o2)on1 | 2.3 | -17 | 1 | 0 | 7 | 3671 | -2
O=C(O)CCC1=C2c3ccccc3CCN2C(=O)CC1 | 1.0 | 15 | -1 | 3 | 0 | 10409 | -9
CCSc1nnc(Cc2cc(=O)[nH]c(=O)[nH]2)n1-c1ccc(Cl)cc1 | 1.5 | -28 | 0 | 4 | -2 | 5639 | -4
O=C1CSCC(=O)N1Cc1ccc(Cl)cc1Cl | 5.1 | -26 | 13 | -11 | 14 | 3142 | 5
COc1cccc(C2=NOC(C(=O)NCC3CCCO3)C2)c1 (configuration not stated) | 7.2 | -29 | 6 | 2 | 9 | 9669 | 1
C=C(C)C(=O)N1CC2(CC(c3cccc(NC(=O)/C(C)=C\C)c3)=NO2)C[C@H]1C(N)=O (some centres not stated) | / | 4 | / | / | / | 2809 | -6
Cc1cc(-c2ccc(C)c(S(=O)(=O)NCCCN3CCCCCC3)c2)on1 | -2.7 | -7 | -5 | -10 | -2 | 6437 | 4
Cc1sc(NC(=O)CCCCC(=O)Nc2sc(C)c(C)c2C(=O)O)c(C(=O)O)c1C | 6.5 | -7 | 8 | -2 | 5 | 7494 | 5
COc1ccc(C2CC(c3ccc4ccccc4c3OC(C)=O)=NN2C(C)=O)cc1 (configuration not stated) | 1.1 | -58 | 12 | 7 | -8 | 4057 | -4
O=c1[nH]c(SCc2ccc(Cl)cc2)nc2c1CCC2 | 5.9 | -4 | 16 | 6 | -2 | 4262 | -9
Nc1ccc2c(c1)C(=O)Cc1ccccc1S2 | -3.4 | -13 | 1 | -6 | 19 | 8133 | -1
COc1ccc(C(=O)CCC(=O)N2CCN(c3ccc(N4CCOCC4)nn3)CC2)cc1 | -0.4 | -7 | / | / | 4 | 6222 | -4
CCCCOc1ccccc1C1C(C(=O)OC)=CN(CC)C=C1C(=O)OC | -6.0 | -20 | -2 | 11 | -3 | 2362 | -16
O=C(Nc1cccc(C(=O)N2CCCCC2)c1)c1ccccc1Br | 1.3 | -10 | 2 | 13 | 1 | 6115 | 7
CC(C)(Oc1ccc(CCNC(=O)c2ccc(-c3ccc(Cl)cc3)o2)cc1)C(=O)O | 0.9 | -9 | 5 | 4 | -1 | 4669 | -5
O=C(Nc1nnc(-c2ccc3c(c2)OCCO3)o1)C1CCCCC1 | 2.2 | -68 | 12 | 4 | 3 | 3863 | 0
CCOC(=S)SCC(=O)Nc1ncc(C)s1 | 3.9 | -30 | 16 | 4 | 9 | 3526 | -13
O=C(COc1ccc2ccccc2c1)Nc1cccnc1Cl | 0.0 | -18 | 0 | 4 | -4 | 3732 | -3
COc1ccc(NCc2nnc(SCC(=O)Nc3ccccc3OC)o2)cc1 | 1.5 | -31 | -2 | 12 | 0 | 11134 | -13
CCOC(=O)c1cnc(-n2nc(C)cc2C)nc1NNc1nc(C)cc(C)n1 | 8.3 | -17 | 0 | 2 | 7 | 3666 | 11
CCCCN(C)CCNC(=O)CCNC(=O)Cn1ccc2ccccc2c1=O | 4.3 | -11 | 12 | 4 | 2 | 3016 | 1
O=C(NC1CCCCC1)c1ccc(NS(=O)(=O)c2cccc3cccnc23)cc1 | -2.6 | -3 | 14 | 9 | 13 | 4666 | 3
CCOc1ccc(OCCC(=O)OC(C)C(=O)Nc2ccc(Cl)cn2)cc1 (configuration not stated) | 1.5 | -4 | 0 | 5 | 7 | / | /
CCOCCCn1c(NN)nc2ccccc2c1=O | 5.1 | -19 | 9 | 8 | 9 | 4588 | 2
Brc1ccc(-c2noc3c2-c2nc(-c4ccccc4)sc2CC3)cc1 | -15 | -31 | 5 | 9 | 9 | 3693 | 6
Cc1sc2ncnc(NCCCn3ccnc3)c2c1C | 2.0 | -17 | / | / | -1 | 4308 | 7
Cc1ccc(C(=O)OC(C)CN2C(C)CCCC2C)cc1 (configuration not stated) | 3.4 | -17 | 2 | -4 | 5 | 4393 | -3
CN(C(=O)c1ccc2nc(N)sc2c1)c1ccccc1 | 1.6 | -18 | 10 | 3 | 1 | 3966 | -7
CCCS(=O)(=O)c1nc(S(=O)(=O)c2ccc(C)cc2)c(N2CCN(CC)CC2)s1 | 2.5 | -1 | 12 | 9 | 4 | 4727 | -10
Cc1ccc(CC(CC(=O)NCCc2ccc3c(c2)OCO3)C(=O)O)cc1 (configuration not stated) | 6.0 | -18 | 16 | 10 | 4 | 8880 | -3
O=C(C1COc2ccccc2O1)N1CCN(c2ccc(C(F)(F)F)cn2)CC1 (configuration not stated) | 8.5 | -25 | 6 | 6 | -1 | 8623 | /
CCCCn1c(C(C)O)nc2ccccc21 (configuration not stated) | 0.6 | -25 | / | / | 2 | 2636 | -4
O=C(NC(=S)NC1CCCCCC1)c1cncc(Br)c1 | -0.3 | -30 | 2 | -2 | 34 | 2326 | 0
CCOC(=O)c1cc2ccc3ccccc3c2oc1=O | 0.9 | -22 | 7 | -6 | 10 | 4010 | -2
O=C(C1CC(=O)N(c2ccc(F)cc2)C1)N1CCOCC1 (configuration not stated) | 1.5 | -5 | -3 | 9 | 3 | 3886 | 3
CCCN(CCC)CCNC(=O)Cn1cnc2sc(C)c(S(=O)(=O)N3CCOCC3)c2c1=O | 3.4 | -23 | -1 | 7 | -2 | 10001 | -3
Cc1ccc(S(=O)(=O)N2CCC3(CC2)OCCO3)c(C)c1 | 3.8 | -22 | 9 | 6 | 8 | 4206 | 6

Whole records from above:
CN(C(=O)c1ccc2nc(N)sc2c1)c1ccccc1 as listed: RN4220 kill: 1.6; PrP UTR inh: -18; Mtb hypoxia inh: 10; Mtb hypoxia inh growth: 3; Sa ugtP lethal: 1; Autofluor counter: 3966; BJeLR lethal: -7
CC(C)(Oc1ccc(CCNC(=O)c2ccc(-c3ccc(Cl)cc3)o2)cc1)C(=O)O as listed: RN4220 kill: 0.9; PrP UTR inh: -9; Mtb hypoxia inh: 5; Mtb hypoxia inh growth: 4; Sa ugtP lethal: -1; Autofluor counter: 4669; BJeLR lethal: -5
O=C(Nc1cccc(C(=O)N2CCCCC2)c1)c1ccccc1Br as listed: RN4220 kill: 1.3; PrP UTR inh: -10; Mtb hypoxia inh: 2; Mtb hypoxia inh growth: 13; Sa ugtP lethal: 1; Autofluor counter: 6115; BJeLR lethal: 7

Next part.
compound | RN4220 kill | PrP UTR inh | Mtb hypoxia inh | Mtb hypoxia inh growth | Sa ugtP lethal | Autofluor counter | BJeLR lethal
COc1ccccc1CNC(=O)CN1C(=O)NC2(CCCCCC2)C1=O | 2.7 | -17 | 12 | 14 | 6 | 3939 | /
CCOC(=O)c1c(C)[nH]c(C)c1S(=O)(=O)NCCc1sccc1C | 1.0 | -16 | 11 | -1 | -10 | 6215 | 0
O=C(CNc1ccccc1)NN=Cc1c(O)ccc2ccccc12 | 5.3 | / | 2 | -1 | 12 | / | /
CCN(CC)CCCN=Cc1c(O)n(-c2ccc(C)cc2)c(=O)c2ccccc12 | 3.1 | -9 | 5 | -2 | 15 | 5579 | 2
NC(=O)CNC(=O)C1CCCc2c1[nH]c1ccc(Cl)cc21 (configuration not stated) | -2.1 | -25 | 6 | 0 | -3 | 15710 | 0
COc1cc(O)ccc1C=NNC(=O)c1ccc([N+](=O)[O-])cc1 | 5.1 | / | 3 | 0 | 1 | / | /
COc1ccc(OC)c(NC(=O)CN2C(=O)c3ccccc3S2(=O)=O)c1 | 0.5 | -17 | -2 | 1 | -2 | 9635 | /
O=C(Cn1cncn1)N/N=C/c1cc([N+](=O)[O-])ccc1O | / | -15 | / | / | / | 4514 | 3
COC(=O)C(NC(=O)c1ccccc1)=C1CCCCC1 | 1.7 | -4 | / | / | 6 | 2369 | 0
CCOC(=O)C1=C(CS(=O)(=O)c2ccc(F)c(C)c2)NC(=O)NC1c1ccc(O)c(O)c1 (configuration not stated) | -2.1 | -38 | -2 | -13 | -8 | 6005 | 4
COc1ccc(C(=O)CN2CCN(c3cc(C)nc4ccccc34)CC2)cc1 | 0.2 | -6 | 3 | 7 | 1 | 7272 | 0
CC(=O)NN=C(C)CC(=O)Nc1cccc2c1CCCC2 | 8.6 | / | -4 | 3 | 2 | / | /
O=S(=O)(/C=C/c1ccccc1)Oc1ccccc1 | 10 | -37 | 3 | 5 | 3 | 21677* | -6
COc1ccc(NC(=O)c2sc(=S)[nH]c2N)cc1 | 5.7 | -15 | 6 | 10 | 3 | 2495 | 4
Cc1ccc(-n2ncc(C(=O)Nc3cc(Cl)ccc3Cl)c2C2CCNCC2)cc1 | 1.7 | -5 | 19 | 21 | -1 | 2628 | 9
C/C(=N\NC(=O)Nc1ccccc1)c1ccccc1 | / | -11 | / | / | / | 5486 | 5
CSc1ccc(CN(C)CC(=O)NC(=O)NCCC2=CCCCC2)cc1 | 2.0 | -5 | 9 | 3 | 16 | 3514 | /
